Screens: PubChem, Fisher Drug Discovery Resource Center
NPYLR7 agonist = agonists of mosquito NPYLR7 receptor, primary screen, cell-based, Aedes aegypti, calcium fluorescence, mosquito biting behavior; Aedes aegypti neuropeptide Y-like receptor 7 (NPYLR7); HEK293T NPYLR7/Galpha15, GCaMP6s calcium fluorescence; activation, % at 10 µM; actives 0.15% (n = 270,000); in the data active means activation above about 40%;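 further: 0% = vehicle and 100% = reference agonist at the receptor; some compounds past the cut are filed as inactive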
NPYLR7 agonist max-min = recorded beside NPYLR7 agonist, whose call it bears; activation, %; measured here: Max-Min RFU normalised activation; some inactives read as strong as hits;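 span of the calcium signal over five minutes; 0% = vehicle and 100% = native peptide agonist; compound fluorescence can raise it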
* hit, by the source's call; & = joins results of further samples. A portion of the library; count on the stated rates, not on these rows.

Sequence of screens: NPYLR7 agonist	NPYLR7 agonist max-min
1	CCN(CC)C(=O)Oc1ccc2c(ccn2Cc2cccc(Oc3ccccc3)c2)c1-c1ccc(OC)c(OC)c1
→ -8	-9
2	Cc1nc(CNC(=O)N(Cc2ccccc2F)C2CC2)cs1
→ 4	2
3	COc1ccc2c(c1)C(C)(Cc1ccc(C(=O)c3ccccc3)cc1)C(=O)N2 (configuration not stated)
→ 4	3
4	O=C(Nc1nnc(SCc2cccc(OC(F)(F)F)c2)s1)C1CCCCC1
→ 4	4
5	Cc1c(Cl)cccc1N=Cc1nc(-c2ccccc2)oc1O
→ 7	0
6	CN=c1scc(-c2ccc(OC(F)F)cc2)n1N=Cc1ccccc1F
→ -5	-12
7	CCOC(=O)CCC(=O)Nc1nnc(SCCCOc2ccccc2)s1
→ 4	16
8	CC(C)CN(Cn1nc(-c2ccccc2)n(-c2ccc(F)cc2)c1=S)C1CCS(=O)(=O)C1 (configuration not stated)
→ 1	7
9	COC(=O)Cn1nnc2sc3c(c2c1=O)CCC(C)C3 (configuration not stated)
→ 4	0
10	Cc1c(Cl)cccc1NC(=O)CSc1nc(=O)n(CCCN(C)C)c2c1CCC2
→ 15	26
11	CNC(=O)c1noc(CN2CCOC(c3ccc(Cl)cc3)C2)n1 (configuration not stated)
→ 9	5
12	CCCCCCCCC(=O)Nc1c(-c2ccc(OC)cc2)nc2ccccn12
→ -4	3
13	CCOc1ccc(OCCCOc2ccccc2Br)cc1
→ 1	29
14	CCNC(=O)N1[C@@H](c2ccccc2)[C@@H](C(=O)OCC)C[C@]12CCCCN(CCOC)C2=O
→ 3	11
15	O=C(NCc1ccccc1OC1CCC1)NCC1CCCC1O (configuration not stated)
→ 6	3
16	CCc1ccc(-c2c(-c3ccccc3)ncn2CCS(C)(=O)=O)nc1
→ -7	-9
17	Cc1cc(C(=O)N2CCc3ccccc3C2c2ccccc2F)c(C)o1 (configuration not stated)
→ -2	0
18	CN(C(=O)CN1CCN(c2c3c(nc4ncnn24)CCC3)CC1)c1ccccc1
→ 2	0
19	CC(=O)C1=C(c2ccc(C)cc2)N(C(C)=O)n2c(nnc2-c2ccccc2)S1
→ 7	5
20	O=C(CSc1nc2[nH]ncc2c(=O)[nH]1)Nc1cccc([N+](=O)[O-])c1
→ -3	-4
21	CCc1csc(CNC(=O)[C@@H](N)CC2CCCCC2)n1
→ 5	1
22	COc1ccccc1N1CCN(C(=O)CCCSc2nnc(-c3ccccc3Cl)n2-c2ccccc2)CC1
→ 7	11
23	COc1cc(CC(=O)N2CCN(S(=O)(=O)c3cc(F)ccc3F)CC2)ccc1C
→ 16	7
24	OC1CCCN(c2ccnc(N3CCc4c([nH]c5ccccc45)C3)n2)C1 (configuration not stated)
→ 3	2
25	C=CC[C@@H]1CC=C[C@@H](C)N1Cc1nc(-c2ccc(F)cc2)oc1C
→ 15	3
26	CCCCNC(=O)c1ccc2nc(C)c(N(CC)CC)n2c1
→ -6	-7
27	O=c1oc2ccc(Br)cc2cc1-c1nnc(Nc2cccc(C(F)(F)F)c2)s1
→ -9	-12
28	CNC(=O)[C@H]1C[C@@H]2O[C@H]1[C@H]1CN(Cc3nccn3C)C[C@H]1[C@@H]2O
→ 4	6
29	O=S(=O)(Nc1cccnc1)c1ccc(Br)s1
→ -2	-1
30	COC(=O)C1(C(=O)N2CCNC(=O)C2c2ccc(F)cc2)CC1 (configuration not stated)
→ -1	-8
31	CCN(CC)S(=O)(=O)c1ccc(C)c(NC(=O)C2=NNC(=O)CC2)c1
→ 1	-2
32	CC1CCc2c(sc3nc(Cc4ccccc4)nc(N4CCN(C(=O)C(C)(C)CCl)CC4)c23)C1 (configuration not stated)
→ 9	18
33	Cc1cc(C(=S)N=P(N(C)C)(N(C)C)N(C)C)c(C)n1-c1ccccc1
→ -7	-10
34	COc1ccc(C(NC(=O)C2CCN(CCCN3C(=O)C4CCCCC4C3=O)CC2)c2ccccn2)cc1 (configuration not stated)
→ 10	2
35	COC(=O)C1=C(C)N(C)C(=O)N(C)C1c1cccc(C(F)(F)F)c1 (configuration not stated)
→ 1	-1
36	CC(=O)c1cccc(-c2nccc(-c3ccc(C)nc3C)n2)c1F
→ 2	23
37	Cc1csc2nc(COC(=O)CCCN3C(=O)NC4(CCCC4)C3=O)cc(=O)n12
→ 11	11
38	O=C1CCC(C(=O)N2CCN(Cc3ccc(-c4noc(-c5ccccc5)n4)cc3)CC2)=NN1
→ 5	10
39	COCCNC(=O)C1(C)CCN(Cc2ccccc2C#N)C1 (configuration not stated)
→ 8	1
40	Cc1ccc(-c2c(C)sc3nc(CN4CCN(C5CCS(=O)(=O)C5)CC4)[nH]c(=O)c23)cc1 (configuration not stated)
→ 8	9
41	CCOC(=O)c1nn(CCCc2ccccc2)c2c1CN(C(=O)c1n[nH]c3c1CCCC3)CC2
→ 17	5
42	O=C1c2ccccc2S(=O)(=O)N1c1ccc(F)cc1
→ 6	2
43	CC(CN=C1CC(=O)OC12CCCCC2)N=C1CC(=O)OC12CCCCC2 (configuration not stated)
→ 11	10
44	O=C(c1cccc2ccnn12)N(Cc1ccccn1)CC1CCCO1 (configuration not stated)
→ 6	4
45	CC(COCC(F)(F)F)Nc1ncc(Br)cn1 (configuration not stated)
→ -3	-7
46	COc1ccc(C(=O)C2CCCN(C(=O)CCCc3ccccc3)C2)cc1OC (configuration not stated)
→ 3	-1
47	CCCc1nc(C)sc1C(=O)N1CCCCC1C(=O)OCCc1ccc(OC)c(OC)c1 (configuration not stated)
→ 9	0
48	COCc1ccccc1CN1C(=O)C(C)NC1=S (configuration not stated)
→ 7	3
49	Cc1sc(N2CCN(C)CC2)nc1-c1ccc(Br)cc1
→ 1	-2
50	O=C(Cn1nc(C2CC2)c2cnn(-c3ccccc3)c2c1=O)N1CCCc2ccccc21
→ 8	5
51	CCOC(=O)C1(Cc2ccccc2Cl)CCN(C(=O)CCOc2ccccc2)CC1
→ -4	-7
52	CCC(=O)Nc1ccc2c(c1)c(=O)n(-c1ccccc1)n2CC(=O)NC1CCCC1
→ 7	6
53	N#CCOC(=O)CCc1nc2sc3c(c2c(=O)[nH]1)CCCC3
→ -3	-1
54	COc1ccccc1CN1CC(C(=O)NCCOC(C)C)CCC1=O (configuration not stated)
→ 6	5
55	Cc1ccc(S(=O)(=O)N2CCN(C(=O)c3cnc(C)cn3)CC2)cc1
→ 1	3
56	CCOc1ccc(-c2ccc(=O)n(CCCC(=O)NC(C)c3ccccc3)n2)cc1 (configuration not stated)
→ -12	-15
57	CN(C)CC[C@@H](c1ccc(Cl)cc1)c1ccccn1
→ -4&8	-9&-8
58	CCn1nnc2c(SCC(=O)Nc3ccc(C(=O)OC)cc3)ncnc21
→ -1	6
59	COc1ccc(NC(=O)NCCS(=O)(=O)c2c(C)[nH]c3ccccc23)cc1OC
→ 2	2
60	COCCNC(=O)c1c(C)c(C)c(C)n1Cc1c(F)cccc1F
→ -4	-2

The list goes on.
Sequence of screens: NPYLR7 agonist	NPYLR7 agonist max-min
61	Cc1nn2c(SCC(=O)N(C)c3ccccc3)nnc2[nH]c1=O
→ 0	-1
62	Fc1ccccc1CCn1ccnc1-c1cccnc1
→ 1	-11
63	N#Cc1c(Cl)nsc1NCC1(N2CCOCC2)CCSC1 (configuration not stated)
→ 12	7
64	COc1nc(-c2ccc(Cl)c(Cl)c2)n(-c2ccc(N)cc2)n1
→ -4	4
65	Cc1cc(NC(=O)Cc2ccc([N+](=O)[O-])cc2)n(-c2nc(C)c(C)c(=O)[nH]2)n1
→ 9	-1
66	Cc1nc(C(C)C)ncc1C(=O)N1CCC(O)(CN(C)C)C1 (configuration not stated)
→ 6	4
67	COc1cn(CC(=O)NC2CCCC2)c(CSc2nc(C)cc(C)n2)cc1=O
→ -5	-12
68	CCOC(=O)C1=CCN(CC(O)c2ccc(Br)cc2)CC1 (configuration not stated)
→ 1	0
69	CCOC(=O)C1(C)CCCN1C(=O)c1ccccc1F (configuration not stated)
→ -1	-3
70	CCc1nnc(NC(=O)CCc2ncc(-c3ccccc3F)o2)s1
→ -2	17
71	COc1ccc(N2CCN(c3cc(-c4ccccc4)nc(SCc4ccc(C(=O)NCCc5ccccn5)cc4)n3)CC2)cc1
→ 6	16
72	CCC(C(=O)Nc1c(-c2ccc(C)cc2)nc2cc(C)ccn12)c1ccccc1 (configuration not stated)
→ -2	2
73	Nc1nc(SCc2cc([N+](=O)[O-])cc3c2OCOC3)n[nH]1
→ 2	7
74	COc1ccc(OCC2CN(C(=O)C3CCC(N(Cc4ccc(OC)c(C)c4)C(=O)OC(C)(C)C)CC3)CCO2)cc1 (configuration not stated)
→ 12	6
75	CCCCCCCCCCn1c(SCC(N)=O)nc2c1c(=O)[nH]c(=O)n2C
→ 2	20

Compound profiles (already shown). Values in the order: NPYLR7 agonist	NPYLR7 agonist max-min
CCC(C(=O)Nc1c(-c2ccc(C)cc2)nc2cc(C)ccn12)c1ccccc1 (configuration not stated) is listed as -2	2
CCc1nnc(NC(=O)CCc2ncc(-c3ccccc3F)o2)s1 is listed as -2	17
CCOC(=O)C1=CCN(CC(O)c2ccc(Br)cc2)CC1 (configuration not stated) is listed as 1	0
CCCCCCCCCCn1c(SCC(N)=O)nc2c1c(=O)[nH]c(=O)n2C is listed as 2	20

Additional structures.
Sequence of screens: NPYLR7 agonist	NPYLR7 agonist max-min
76	Cn1c2c(c3ccccc31)C[C@H]1C[C@@H]2[C@@H](O)CN1C(=O)NCc1ccccc1
→ 18	26
77	CCOC(=O)CNC(=O)CSC1=NS(=O)(=O)c2cc(F)ccc2N1
→ 12	8
78	COc1ccc(OC)c(-n2c(N)c(C#N)c3nc4ccccc4nc32)c1
→ 0	1
79	Cc1nc(CCNC(=O)C(C)(C)NC(=O)c2cccs2)nc2c1CCCC2
→ -4	-8
80	CCCCNC(=O)CCCn1c(=O)c2ccccc2n(Cc2ccccc2C)c1=O
→ -3	-7
81	Cc1ccsc1C1(C(=O)N2CCC(O)(C(=O)O)CC2)CC1(C)C (configuration not stated)
→ 4	1
82	C=CC[C@@H]1CC=C[C@@H](C)N1C(=O)Cn1nc(C)c(C(C)=O)c1C
→ -6	-11
83	C1CCc2nnnn2CC1
→ 1&-3&-13	-17&-5&-20
84	O=C(Cc1cccc2ccccc12)Nc1nc2c(ccc3ccccc32)s1
→ 16	16
85	CCNC(=O)N1CCN(c2cc(Cl)nc(SCC(=O)O)n2)CC1C (configuration not stated)
→ 14	16
86	CN1CCc2c(sc3c2C(=O)NC(c2cccs2)N3)C1 (configuration not stated)
→ 27	12
87	COc1cc(NC(=O)c2nnn(CC(=O)Nc3cc(C)cc(C)c3)c2N)cc(OC)c1
→ -7	-12
88	CN(CCCC(=O)O)S(=O)(=O)N(C)C1CCCCC1
→ -1	-3
89	CCOC(=O)CNC(=O)N(CCC(C)C)CC(=O)N(Cc1cccn1Cc1ccccc1Cl)C1CCCCC1
→ 1	7
90	O=C(NC(c1ccccc1)c1ccccc1)C1CCCN(c2nc(Cc3ccc(Cl)cc3)ns2)C1 (configuration not stated)
→ 23	31
91	CCOC(=O)C(C)Sc1nnc(N2CCN(c3ccccc3)CC2)s1 (configuration not stated)
→ 2	8
92	CN(Cc1cc2n(n1)CCNC2)Cc1cnc(-c2ccccc2)s1
→ 7	7
93	CCOc1ccccc1CNC(=O)c1c(C)noc1-c1ccccc1OC
→ -4	1
94	COC(=O)N[C@@H]1C[C@H]2C[C@@H](C(C)C)OC[C@@]2(c2ccccc2)C1
→ -3	6
95	CC(C)NC(=O)CNC(C)CCc1ccccc1 (configuration not stated)
→ 10	8
96	CC(C)c1cc(C(=O)N2CCC(Cc3cccc(C(N)=O)c3)C2)on1 (configuration not stated)
→ -3	-5
97	O=C1NC(Cc2ccc(F)cc2)(C2CCNCC2)C(=O)N1CCn1ccnc1 (configuration not stated)
→ 7	6
98	O=C(Nc1ccccc1)c1ccc(Br)c(S(=O)(=O)N2CCCCC2)c1
→ -11	-20
99	Cn1ccnc1SCCc1cccs1
→ -5	-10
100	CNC(=O)[C@@H]1CN2CCN(S(=O)(=O)c3ccccc3)C[C@@H]2[C@H]1c1ccccc1
→ 0	3
101	COCCCN(C(=O)CC12CC3CC(CC(O)(C3)C1)C2)c1c(N)n(Cc2ccccc2)c(=O)[nH]c1=O
→ 4	4
102	COC(=O)C1CCCCC1NC(=O)c1cn[nH]c1C (configuration not stated)
→ 6	4
103	Cn1c(=O)[nH]c2ccc(S(=O)(=O)NCC3CC4CCC3C4)cc2c1=O (configuration not stated)
→ 21	20
104	Cc1ccc(C(=O)NC(C)C)c(C2CCN(Cc3ccc([N+](=O)[O-])cc3)CC2)n1
→ 7	7
105	CNc1nc(N2CCN(Cc3nccn3C(C)C)CC2)nc2c1CCC2
→ 8	1
106	COc1ccc(Cl)cc1NC(=O)CCC1CCCN(C(=O)CCN2CCCC2=O)C1 (configuration not stated)
→ -6	-7
107	CCOC(OCC)c1nc2c(c(=O)[nH]1)CN(CC(O)COCc1ccccc1)CC2 (configuration not stated)
→ 13	12
108	COc1ccc(/C=C/C(=O)OCC(=O)c2ccc3c(c2)OCCO3)cc1
→ 16	6
109	Cc1ccc(F)cc1-c1ccc(SCC(N)=O)cc1
→ 10	6
110	C=CCOc1ccccc1OCC(O)CNC(C)C (configuration not stated)
→ 15	5

Three entries from above, field by field.
107	CCOC(OCC)c1nc2c(c(=O)[nH]1)CN(CC(O)COCc1ccccc1)CC2 (configuration not stated)
  NPYLR7 agonist = 13
  NPYLR7 agonist max-min = 12
108	COc1ccc(/C=C/C(=O)OCC(=O)c2ccc3c(c2)OCCO3)cc1
  NPYLR7 agonist = 16
  NPYLR7 agonist max-min = 6
109	Cc1ccc(F)cc1-c1ccc(SCC(N)=O)cc1
  NPYLR7 agonist = 10
  NPYLR7 agonist max-min = 6
